Source: PubChem
Bead autofluor = flagged as autofluorescent in microsphere protease counterscreen. fluorescence intensity (test concentration not listed). AID 624483. compound autofluorescence counterscreen, microsphere flow cytometry; active compounds read high. 360,000 compounds, 3.1% hits;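 active = at least 3 SD above the mean of all compounds, about 16000 in these data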;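 note: 100 nL of 1 mM stock went into each well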
* = called active by the depositor. These rows are one share of the data; the hit share may differ from the screen's.

canonical_smiles | Bead autofluor
Cc1ccc(-c2ccc(CN3C(C(C)C)C(=O)N(Cc4cn(Cc5ccco5)nn4)CCS3(=O)=O)cc2)cc1 (centres undefined) | 2951
COc1ccc(Cn2cc(CN3CC(N4CCN(CCN(C)C)CC4)CS3(=O)=O)nn2)cc1 (centres undefined) | 5983
CCCc1ccc(C(O)c2ncc(-c3cccc(F)c3)[nH]2)cc1 (centres undefined) | 2858
COc1ccc(-c2nc3c(C)cc(Br)cn3c2CC(C)(C)C)cc1OC | 6429
CC(C)NC(=O)C1(C)CCCN1C/C=C/c1ccccc1 (centres undefined) | 3647
Cc1cccc(C)c1-n1nnnc1C1c2ccccc2C(=O)N1C1CC1 (centres undefined) | 5758
CC(=O)c1cccc(-c2ccnc3c2CC(C(=O)Nc2cccc(C(F)(F)F)c2)O3)c1 (centres undefined) | 3638
COc1cc(C(=O)COC(=O)c2ccc3c(c2)OCCO3)cc(OC)c1OC | 4212
COC(=O)c1ccc(CSc2ccccc2NC(=S)Nc2cccc(C(F)(F)F)c2)o1 | 3588
COc1ccc2sc(C)cc(=O)c2c1 | 3780
CCCc1cc(=O)oc2c3c(cc(OCC(=O)N4CCC(C(=O)O)CC4)c12)OC(C)(C)CC3 | 5576
O=C(Nc1ccccc1)c1cc(C2CCCCN2C(=O)OCCF)on1 (centres undefined) | 3629
C/C=C/c1cccc(-c2nc(C(=O)N3CCCCC3)cc3c2[C@@H](CCO)N(C(=O)NC(C)C)C3)c1 | 6273
O=C(Nc1c(Cl)ccc2nsnc12)c1ccc(Br)o1 | 3398
C=Cc1ccc(Cn2c(C)c(C(=O)NCCC#N)sc2=O)cc1 | 5578
CC(C)C[C@@H](CN1CCC[C@@H]1CN1C(=S)NC[C@@H]1Cc1ccc(O)cc1)N1C[C@H](Cc2ccc(O)cc2)N(CCc2ccccc2)C1=S | 4354
CCC(C)(C)C1CCC2(CC1)NC(=O)N(CC(=O)N1CCN(c3ccccc3OC)CC1)C2=O (centres undefined) | 2768
Nc1nc(N)c2ncn(C3C=CC(CO)C3)c2n1 (centres undefined) | 6136
Cn1c(NCc2ccccc2)nc2cc(-c3ccccc3)sc2c1=O | 3798
COC(=O)c1ccc2nc(-c3ccc(F)cc3)c(Cc3ccccc3OC)n2c1 | 9873
CC(=O)c1cccc(NC(=O)C2(C)Cc3c(-c4ccccc4)ccnc3O2)c1 (centres undefined) | 3865
COc1ccccc1CNc1nc(NCCOc2ccccc2)c2sccc2n1 | 2993
COc1ccc(-c2coc3c(C(=O)NCC4CC4)cccc23)c(C)c1 | 3415
COc1ccc(CNC(=O)C2Cc3c(-c4cccc(C(C)=O)c4)ccnc3O2)cc1OC (centres undefined) | 3621
COc1ccccc1C1NC(=O)NC(C)=C1C(=O)OCC1CCCCC1 (centres undefined) | 3893
C=C1[C@@H](OC(C)=O)C=C[C@@]2(C)C=CC(=O)[C@@](C)(OC(C)=O)[C@@H]2[C@@H](OC(C)=O)[C@]2(O)[C@@H](C)C(=O)O[C@H]2[C@H]1Cl | 5473
CCCCN(C)c1c(C)nc2ccc(C(=O)N(C)Cc3ccco3)cn12 | 3577
CC1(C)CC(=O)C=C(c2ccc(-c3cccc4c3sc3ccccc34)cc2)C1=O | 3294
COc1ccc(C(O)c2nc(-c3cccc4cccnc34)cs2)cc1 (centres undefined) | 3508
C=CCN(C(=O)CSc1nc2ccsc2c(=O)n1Cc1ccc(C(=O)O)cc1)c1ccccc1 | 3861
O=C(C[n+]1cccc(/C=N/O)c1)NC(=O)Nc1ccccc1 | 6215
CC1(C(=O)NCc2cccs2)CCN1CCc1ccccc1 (centres undefined) | 4037
CC1C(=O)N(Cc2cn(CCC3OCCCO3)nn2)CCS(=O)(=O)N1Cc1ccc(-c2ccc(F)nc2)cc1 (centres undefined) | 2967
O=C(Nc1cccc(F)c1)c1ccc(-n2cncn2)c2ccoc12 | 2879
CC1(C)C(C(N)=O)C(=O)NC(=O)C1C(N)=O (centres undefined) | 4178
O=C(CCNS(=O)(=O)c1ccc(Br)cc1)NCC(c1cccs1)N1CCOCC1 (centres undefined) | 3061
O=C(NCc1ccc(F)cc1)c1cc(C2CCCCN2C(=O)CCc2ccccc2)on1 (centres undefined) | 3837
C[C@@H]1CN([C@@H](C)CO)C(=O)CCCn2nncc2CO[C@H]1CN(C)Cc1ccc(Cl)c(Cl)c1 | 3715
CCCCCC(=O)N1C[C@H](n2cc(C3CC3)nn2)[C@@H](O)C[C@@H]1c1ccccc1 | 2879
O=c1ncccn1C1OC(CO)C(O)C1O (centres undefined) | 5378
Cc1cc(C)n2c(Nc3ccc4c(c3)OCCO4)c(CC(C)C)nc2n1 | 5242
C[C@H]1CN([C@@H](C)CO)C(=O)c2cc(Br)cnc2O[C@@H]1CN(C)S(=O)(=O)c1cn(C)cn1 | 2964
O=C(CCN1C(=O)c2ccccc2C1=O)c1cnc[nH]1 | 4144
CCc1nc2ccc(C(=O)NCCCN3CCCC3=O)cn2c1N(CC)CCN(C)C | 2818
CCC(=O)NC(c1ccco1)c1cc(Br)c2cccnc2c1O (centres undefined) | 3782
OC(c1cc(F)cc(Cl)c1)c1ncc(-c2ccc(Cl)cc2)[nH]1 (centres undefined) | 3681
Cc1cc(Nc2ccccc2C(=O)O)n2ncnc2n1 | 3890
CCCCCc1c(-c2cccc(F)c2)ncn1CCc1ccccc1OC | 5935
O=C(NC1CC1)c1ccccc1NC(=O)c1ccccc1OC(F)F | 3694
CCOC(=O)C1(C)CCN1C(=O)c1ccc(Cl)nc1 (centres undefined) | 3756
Cc1ccc(Cc2c(-c3ccccc3)nc3ccc(Cl)cn23)cc1 | 3516
COc1cccc(C(C)(O)c2nc(-c3ccc(C)c(C)c3)cs2)c1 (centres undefined) | 2967
CC1CCCCC12NC(=O)N(CC(=O)Nc1ccc3c(c1)OCO3)C2=O (centres undefined) | 3804
CC1(C(=O)NCc2cccs2)Cc2c(-c3ccc(C(N)=O)cc3)ccnc2O1 (centres undefined) | 2826
CC(C)c1cc(Cn2c3ccccc3c(=O)n2C(C)C)on1 | 5407
COc1ccc(NC(=O)c2cc(-c3cc(Cl)ccc3C)n[nH]2)c(OC)c1 | 3713
CSCCC(c1nnnn1-c1ccc2c(c1)OCCO2)N1CCC2(CC1)C(=O)NCN2c1ccccc1 (centres undefined) | 5437
CCC(c1nc2ccccc2[nH]1)N(C(=O)Cc1cc(OC)cc(OC)c1)c1ccc(N2CCOCC2)cc1 (centres undefined) | 5601
O=C(NCCCN1CCOCC1)c1cccc(S(=O)(=O)N2CCc3ccccc32)c1 | 3697
CONC(=O)c1ccc(-c2cccc3nccn23)cc1 | 3307

(listing goes on)
canonical_smiles | Bead autofluor
OCc1ccccc1-c1nc(NCc2ccccc2)nc2ccsc12 | 2957
COCCNc1nc2c(c(=O)n(C)c(=O)n2C)n1CCCc1ccccc1 | 4287
Cc1ccc(-c2cc(NC=O)c3ncc(-c4cccc(C(=O)N(C)C)c4)n3c2)cc1 | 3357
CC(C)C[C@H]1CN([C@@H](Cc2ccc(O)cc2)CN2CCC[C@H]2CN2C(=O)C(=O)NC[C@@H]2Cc2ccccc2)C(=O)C(=O)N1CC1CCCCCC1 | 5587
COc1ccc(S(=O)(=O)N(C)C[C@@H]2OCc3cn(nn3)CCCC(=O)N([C@H](C)CO)C[C@H]2C)cc1 | 6012
O=C(C[C@H]1C(=O)N(Cc2ccccc2)C[C@@H]1Cc1ccccc1)Nc1ccc(Br)cc1 | 2908
CC1(C(=O)NS(=O)(=O)c2ccc(C#N)cc2)CCN1C(=O)Cc1ccccc1Cl (centres undefined) | 3726
Cc1cc(C)cc(Nc2cc(C)nc3ncnn23)c1 | 2761
O=C(COC(=O)CCS(=O)(=O)c1ccccc1)NNC(=O)c1ccc([N+](=O)[O-])cc1 | 3462
CC1CCN(C(=O)CCn2c(=O)oc3ccc(Cl)cc32)CC1 | 2869
C[C@@H](c1ccccc1)N1C[C@@H](COCc2ccccc2)Oc2cc(N3CC[C@@H](N(C)C)C3)ccc2S1(=O)=O | 6174
CSC[C@H]1CN(CCc2ccccc2)C(=O)[C@@H]1CC(=O)Nc1ccc(Br)cc1 | 3586
COc1ccc(NC(=O)C2c3ccccc3OCC(=O)N2Cc2ccco2)cc1 (centres undefined) | 4343
O=C(Nc1nnc([C@@H]2C[C@H](O)[C@@H](CO)O2)s1)c1cccc(C(F)(F)F)c1 | 3898
NC(CSC1(c2ccc(F)cc2)c2ccccc2-c2ccccc21)C(=O)O (centres undefined) | 3867
CCCCCC(=O)N1C[C@@H](O)[C@H](n2cc(-c3ccc(F)cc3)nn2)C[C@@H]1c1ccc(C)cc1 | 3764
O=C(OCc1ccccc1)N1CCC2CC1c1ccc(/C=C/CCCCl)cc12 (centres undefined) | 4335
CN(C)c1ccc(-c2ccnc3c2CC(C)(C(=O)NCc2cccc(Cl)c2)O3)cc1 (centres undefined) | 2928
CC1=C(C(=O)N2CCCCCC2)CC(CC(=O)NCCCN(C)C)C(=O)N1Cc1ccc(F)cc1 (centres undefined) | 5495
CC1(C(=O)Nc2cccc(OC(F)(F)F)c2)Cc2c(-c3cccc(C(F)(F)F)c3)ccnc2O1 (centres undefined) | 4366
Cc1cc(C(F)(F)F)nc(NNc2nc(C)cc(C(F)(F)F)n2)n1 | 3196
CCC(C)C(CO)NCCCn1cnc2c(OCc3ccccc3)ncnc21 (centres undefined) | 2939
CCCCN(CCCNC(=S)NCCCc1cnc[nH]1)c1ccc(Br)cn1 | 3425
O=C1NC[C@@H](CCCCN2C[C@H](Cc3ccccc3)N(CCc3ccc(O)cc3)C(=O)C2=O)N(Cc2ccccc2)C1=O | 6094
CCc1nc2ccc(C(=O)Nc3cccc(NS(C)(=O)=O)c3)cn2c1N(C)CCCc1ccccc1 | 3697
NC(=O)c1ccc(NS(=O)(=O)c2ccc(S(=O)(=O)N3CCCC3)cc2)cc1 | 3596
CC(=O)CC1c2cc(F)ccc2C=C(c2ccsc2)N1c1ccc(-c2cccnc2)cc1 (centres undefined) | 5738
CC1Nc2ncnc(N3CCc4ccccc4C3)c2N(Cc2ccccc2)C1=O (centres undefined) | 5748
OC(c1cccc(Cl)c1)c1nc(-c2cccc3cccnc23)cs1 (centres undefined) | 2976
C=CCn1c(=O)c(C(=O)Nc2ncccc2C)c(O)c2ccccc21 | 3091
Cc1c(C(=O)N2CCC2(C)C(=O)O)oc2ccccc12 (centres undefined) | 2810
COCCNC(=O)C1CCCN(Cc2ccccc2Cl)CC1 (centres undefined) | 3656
Cc1cccc(C)c1OCC(O)CN1CCN(C(=O)c2ccccc2)CC1 (centres undefined) | 3739
CC(C)Oc1ccc(F)cc1-c1cc(C(=O)NCc2cc(C(F)(F)F)cc(C(F)(F)F)c2)[nH]n1 | 4323
Cc1ccccc1-c1cc2nc(NCCCN(C)C)n(C)c(=O)c2s1 | 2861
O=C1NC[C@@H](CCCCN2C[C@H](Cc3ccc(O)cc3)N(CCc3ccccc3)C(=O)C2=O)N(CCC2CCCCC2)C1=O | 4795
O=C(CCn1c(=S)[nH]c2cc3c(cc2c1=O)OCO3)NCCc1ccccc1Cl | 3068
COc1ccc2c(c1)CCO[C@]21O[C@H](CCO)C[C@H](O)[C@H]1O | 3006
COCCN1C(=O)CCC1(C)C(=O)NC1CCCCC1 (centres undefined) | 5118
CCCCN1CC(N2CCCCC2)CS1(=O)=O (centres undefined) | 5799
Cc1cccc(S(=O)(=O)N(C)C[C@@H]2OCc3cn(nn3)CCCC(=O)N([C@@H](C)CO)C[C@H]2C)c1 | 3471
CCc1nc2c(OCC=C(C)C)cccn2c1N(C)C(=O)c1ccccc1F | 3489
O=C(CSc1nc(-c2ccccc2)c(-c2ccccc2)o1)N1CCCCC1 | 3779
CC1(C(=O)NS(=O)(=O)c2ccccc2Cl)CCN1C(=O)c1cccc2ccccc12 (centres undefined) | 2931
O=C(OCc1cn([C@@H]2CN(C(=O)C3CCCCC3)[C@@H](c3ccccc3)C[C@H]2O)nn1)c1ccccc1 | 3604
Fc1cccc(Cc2c(-c3ccccc3)nc3c4ccccc4ccn23)c1 | 5253
Cc1ccc(S(=O)(=O)NN=CC=CC=NNS(=O)(=O)c2ccc(C)cc2)cc1 | 3991
Cn1c(=O)c2c(-c3ccccc3)n(-c3cc(C(=O)O)ccc3O)cc2n(C)c1=O | 4013
COc1ccc([C@H]2N[C@]3(CCCN(Cc4ccc(C)cc4)C3=O)[C@H]3C(=O)N(C)C(=O)[C@@H]23)cc1 | 2855
O=C1COc2ccc(C(=O)COC(=O)CCCOc3ccccc3)cc2N1 | 2656
COCCNC(=O)CSc1nc(N)c(NC(=O)c2ccco2)c(=O)[nH]1 | 3956
CCOC(=O)C1=CC[C@@H](c2ccc(F)cc2)N(S(=O)(=O)c2ccc(C)cc2)[C@H]1c1ccccc1 | 4465
COc1cccc(C(=O)N2CCC[C@@H]2C(=O)N2CCC[C@H]2C(=O)NCc2ccncc2)c1 | 5663
